RE007 growth inh = less growth of the S. pombe RE007 Vpr strain | Potency, µM (titrated, usually from 92.2 µM), for inactives: top-dose activity change, negative = less growth | 360,000 compounds, 0.21% hits | S. pombe RE007 Vpr strain, BacTiter-Glo ATP luminescence, 24 h; control for the full effect not named in the record; active = well fitted falling curve with a large enough effect; inconclusive = small, poorly fitted or top-dose-only effect; inactive = no such curve, though single readings can be large or run the other way;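 further: on the % scale 0 is the no-effect control and ±100 the full control effect; nearly all actives have a fitted effect of over 50% in size; the assay follows cell death caused by Vpr and the record does not say whether a fall means rescue or toxicity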
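Fission yeast strain RE007, carrying one chromosomally integrated HIV-1 vpr copy, was seeded at OD 0.01 in PMG+AL medium with 23 nL pinned compound. After 24 h at 30 °C and 99% humidity, viability was read by BacTiter-Glo luminescence.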
StopGo reporter = FMDV 2A StopGo reporter, luciferase signal; human cells with a luciferase reporter of 2A StopGo recoding; control for the full effect not named in the record; Potency, µM (titrated, usually from 57.9 µM), for inactives: top-dose signal change, negative = less light; 410,000 compounds, 1.2% hits; active = well fitted falling curve with a large enough effect; inconclusive = small, poorly fitted or top-dose-only effect; inactive = no such curve, though single readings can be large or run the other way; tested in HEK293T cells; further: on the % scale 0 is the no-effect control and ±100 the full control effect; nearly all actives have a fitted effect of over 45% in size; luciferase light after 4 h
Marburg entry inh = inhibitors of Marburg virus binding or cell entry. 300,000 compounds, 1.8% hits. Marburg virus pseudotyped entry inhibition, cell reporter; control for the full effect not named in the record; about a third of the inactives were read at about 46 µM. Potency, µM (series often up to 37.8 µM), for inactives: top-dose activity change, negative = inhibition, usual class: inhibitors; active = well fitted inhibition curve with a large enough effect; inconclusive = small, poorly fitted or top-dose-only effect, or effect the other way; inactive = flat fitted curve, though single readings scatter; tested in HEK293 cells; about a fifth of its hits are not listed in these tables; further: on the % scale 0 is the no-effect control and ±100 the full control effect; luciferase read-out
Cruzain Triton = inhibitors of Trypanosoma cruzi cruzain with detergent | Potency, µM, without a hit: max response, negative = inhibition, hits mostly inhibitors | purified cruzain, Z-FR-AMC fluorescence, 0.01% Triton | 200,000 compounds, 0.43% hits | P25779;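 further: plate controls were neutral wells for no effect and buffer without enzyme for full effect; nearly all actives have a fitted effect of over 40% in size; top concentration of the series not given in the record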
Target sequence (P25779 123-467 limits assumed): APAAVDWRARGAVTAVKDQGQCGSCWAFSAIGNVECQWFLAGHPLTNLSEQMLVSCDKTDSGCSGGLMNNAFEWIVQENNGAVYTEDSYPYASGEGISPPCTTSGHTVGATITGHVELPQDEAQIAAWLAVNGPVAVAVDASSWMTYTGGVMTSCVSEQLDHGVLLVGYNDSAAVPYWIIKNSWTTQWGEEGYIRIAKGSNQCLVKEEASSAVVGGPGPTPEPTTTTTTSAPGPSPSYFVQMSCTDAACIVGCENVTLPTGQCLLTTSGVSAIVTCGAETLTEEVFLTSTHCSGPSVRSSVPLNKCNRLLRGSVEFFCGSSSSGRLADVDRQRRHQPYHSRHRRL
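Enzyme 1.5 nM, Z-FR-AMC 2 uM, NaOAc 100 mM pH 5.5, DTT 5 mM, Triton X-100 0.01%; 15 min RT compound preincubation; kinetic ex360/em450, 60 s delta.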
LASV entry inh = blocks Lassa virus binding to or entry into cells; Potency, µM (highest dose often 37.9 µM), for the others: at the highest dose activity change, negative = inhibition, actives largely listed as inhibitors; AID 540256; 300,000 compounds, 1.2% hits; Lassa virus pseudotype entry inhibition, cell reporter; control for the full effect not named in the record; active means well fitted inhibition curve with a large enough effect; inconclusive means small, poorly fitted or top-dose-only effect, or effect the other way; inactive means flat fitted curve, though single readings scatter; tested in HEK293 cells; further: on the % scale 0 is the no-effect control and ±100 the full control effect; nearly all actives have a fitted effect of over 50% in size; luciferase read-out
NS1 inh = influenza NS1 inhibition | 270,000 compounds, 0.4% hits | S. cerevisiae slowed by influenza A NS1, growth recovery by OD600 | AID 2326 | Potency, µM (highest dose often 46.1 µM), without a hit: top-dose activity, positive = more growth; active means well fitted rising curve with a large enough effect; inconclusive means small, poorly fitted or top-dose-only effect; inactive means no such curve, though single readings can be large or run the other way; further: nearly all actives have a fitted effect of over 50% in size
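Compounds were scored for reversing the slow growth caused by influenza A NS1 in S. cerevisiae, measured by optical density at 600 nm. Assay medium contained 2% galactose at pH 6.0; NS1-free yeast of the same strain were the positive control.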
SARS PLpro yeast = blocks SARS-CoV papain-like protease in a yeast assay; S. cerevisiae expressing SARS-CoV PLpro, growth rescue; control for the full effect not named in the record; Potency, µM (doses to about 32.9 µM), for inactives: at the highest dose activity, positive = growth rescue; 330,000 compounds, 0.19% hits; AID 485353; active means well fitted rising curve with a large enough effect; inconclusive means small, poorly fitted or top-dose-only effect; inactive means no such curve, though single readings can be large or run the other way; further: 0% is about no effect; nearly all actives have a fitted effect of over 55% in size; growth read by luminescence after 48 h
Cruzain noTriton = cruzain (T. cruzi) inhibition without detergent; purified cruzain, Z-FR-AMC fluorescence, no detergent; Potency, µM, without a hit: max response, negative = inhibition, actives largely listed as inhibitors; 200,000 compounds, 2.3% hits; AID 1476;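 further: plate controls were enzyme without inhibitor for no effect and buffer without enzyme for full effect; nearly all actives have a fitted effect of over 40% in size; top concentration of the series not given in the record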
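Detergent-free condition (0.00005% Triton X-100) in acetate buffer pH 5.5 with DTT. 1.5 nM enzyme and compound were pre-mixed 15 min, then 2 uM Z-FR-AMC substrate added; reaction progress from fluorescence change between first and third reads (60 s).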
Starred values were filed as active, the others as inactive; ? = inconclusive; . = not tested or not shown; & = joins results of further samples; [ ] = dose if it differs, or a comment. Unless noted, the call rests on the fitted dose curve; in most records, active means well fitted curve in the direction sought with a large enough effect; inconclusive means small, poorly fitted or top-dose-only effect, or another doubt; inactive means no such curve, though single readings can be large; an effect the other way counts as inactive or inconclusive. Potency means the concentration at half of the fitted maximal effect.

SMILES	RE007 growth inh	StopGo reporter	Marburg entry inh	Cruzain Triton	LASV entry inh	NS1 inh	SARS PLpro yeast	Cruzain noTriton
CCN(CC)CCNC(=O)Cn1cnc2sc(C)c(S(=O)(=O)N3CCOCC3)c2c1=O	-12%	-7%	15%&15%	-2.7%	-2%	-3%	-21%	20%
CCOC(=O)N1CCN(c2c(N3CCC(N4CCCCC4)CC3)c(=O)c2=O)CC1	7%	0%	-4%	2.3%	.	-1%	-2%	-10%
Cc1cc(=O)n2nc(N3CCC(C(=O)NCc4ccc(Cl)cc4)CC3)sc2n1	9%	-15%&-10%	-16%&-16%[46.1 µM]	-11%	0%[46.1 µM]	17%	3%	0%
CNNCc1ccc(C(=O)NC(C)C)cc1	10%[18.4 µM]	-13%	.	1.6%	.	.	.	-6%
Cc1ccc(CS(=O)Cc2ccc(C(=O)NC3CCCCCC3)o2)cc1 (stereo unspecified)	2%	8%	.	.	.	-13%	18%	.
CCN(CC)S(=O)(=O)c1ccc2c(c1)N(CC(=O)Nc1c(C)cccc1C)C(=O)CO2	.	-12%	12%[46.1 µM]	0.1%	22%[46.1 µM]	.	.	-17%
CN1C(=O)C2CCCCN2c2ccc(C(=O)NCc3ccccc3Br)cc21 (stereo unspecified)	.	16%	.	-5.2%	?	.	.	-6%
O=C(O)C1CC(=O)N(c2ccc(OCc3ccc(Br)cc3)cc2)C1 (stereo unspecified)	-8%	5%	8%[46.1 µM]	.	-11%[46.1 µM]	8%	2%	.
CN1C(=O)C2(SCC(=O)N2c2ccc(Cl)cc2)c2ccccc21 (stereo unspecified)	.	-25%	.	-3.4%	17%[46.1 µM]	.	.	6%
CCn1c(/C=C\c2ccccc2C)nc2ccccc2c1=O	-11%	2%	.	.	.	-5%	1%	.
O=C(O)COc1ccccc1/C=N/NC(=O)CNC(=O)c1ccc(F)cc1	-8%	-12%	.	.	.	-5%	1%	.
O=C(Nc1ccccc1C(F)(F)F)c1cc2ccccc2o1	-5%	62%[activator]	.	.	.	11%	1%	.
O=C(CN1C(=O)c2cccnc2Oc2ccc(Cl)cc21)NC1CCCCC1	6%	-2%	.	.	.	-16%	2%	.
COc1ccc(NC(c2ccccc2)c2ccncc2)cc1 (stereo unspecified)	-12%	-14%	.	.	.	14%	-2%	.
CN(C)c1cccc(C(=O)OCC(=O)Nc2ccccc2Cl)c1	-17%	-5%	?	.	-13%	.	0%	.
Cc1ccc(S(=O)(=O)NN=C2CC3CCC2(C)C3(C)C)cc1 (stereo unspecified)	4%	34%[activator]	?	.	3%[46.1 µM]	.	.	.
Cc1ccc2c(C(=O)CN3CCCC(C)C3)c(C)[nH]c2c1 (stereo unspecified)	-9%	-6%	?	.	20%[46.1 µM]	1%	1%	.
CSc1nc2cc(C)nn2c(-c2ccccc2Cl)c1C#N	1%	4%	.	.	.	0%	1%	.
CCc1ccc(NCCC(=O)c2ccc(Br)cc2)cc1	4%	18%	7%	-5.4%	-6%	0%	18%	1%
O=C(Nc1cc(C(F)(F)F)ccc1Cl)c1noc2c1CCCCC2	.	-18%	?	-9.0%	-2%[46.1 µM]	.	.	-13%
Cc1ccccc1C(=O)NNC(=S)Nc1cccc(C(F)(F)F)c1	8%	13%	?	2.3%	?	-1%	20%	-2%
Cc1sc2nc(CN(C(=O)c3cccs3)C3CCCC3)[nH]c(=O)c2c1C	18%	?	?	-4.0%	-7%	-33%	6%	-1%
Cc1nnc(SCC(=O)NCC(=O)Nc2ccc(F)c(F)c2F)n1N	2%	40%[activator]	-8%[46.1 µM]	.	21%[46.1 µM]	.	-1%	.
CCc1ccc(NC(=O)CCNC(=O)Cn2cnc3ccccc3c2=O)cc1	0%	-3%&-24%	12%&29%[46.1 µM]	.	18%	3%	0%	.
CN(C)/C=N/c1ncc(C(=O)c2ccccc2)s1	1%	55%[activator]	-5%	-5.0%	?	6%	2%	-7%
Continued.
SMILES	RE007 growth inh	StopGo reporter	Marburg entry inh	Cruzain Triton	LASV entry inh	NS1 inh	SARS PLpro yeast	Cruzain noTriton
Cn1cc(C(=O)C(=O)N2CCCC2)c2ccccc21	-15%	-5%	1%	.	8%	-2%	-6%	.
NC(=S)NN=C1CCSCC1	-8%	0%	?	.	12%[46.1 µM]	.	.	.
COc1cc(C(=O)CC2(O)C(=O)N(Cc3ccccc3Cl)c3ccccc32)cc(OC)c1OC (stereo unspecified)	.	-12%	-26%[46.1 µM]	-9.0%	?	.	.	?
Cc1[nH]c2ccccc2c1SCc1nnc(SCc2ccc(Cl)cc2)n1C	-5%	1%	?	.	?	0%	1%	.
O=C(Nc1ccc2c(c1)OCO2)c1ccc([N+](=O)[O-])cc1[N+](=O)[O-]	1%	4%	16%[46.1 µM]	.	-1%	-7%	-1%	.
COc1ccc(/C=C/C(=O)NCC(=O)N2CCC(N(C)CCN3CCOCC3)CC2)cc1OC	3%	-14%	21%	.	-9%	.	-3%	.
CCOC(=O)N1CCC(NC(=O)c2cc(S(=O)(=O)N3CCCCC3)ccc2F)CC1	-11%	39%[activator]	8%[46.1 µM]	.	-3%[46.1 µM]	.	-3%	.
O=C(NCC1CCCO1)c1ccc(Br)s1 (stereo unspecified)	-5%	32%[activator]	.	.	.	-3%	-5%	.
CCOC(=O)NS(=O)(=O)c1ccc(CCNC(=O)c2cc(C)on2)cc1	18%	-8%	10%	-0.5%	1%	-8%	-14%	19%
CC(=O)N/C(N)=N/c1nc2cc([N+](=O)[O-])ccc2o1	2%	51%[activator]	?	.	?	8%	-1%	.
COc1cc2c(cc1OC)C(C)N(C(=O)c1cc3ccccc3o1)CC2 (stereo unspecified)	-18%	?	-27%	5.2%	?	-51%	-16%	?
Cc1ccc2nc(NC(=O)CCn3c(=O)sc4ccccc43)sc2c1	-16%	-18%	.	-7.2%	.	4%	-20%	-28%
CC1(C)CC(=O)C2=C(C1)N(c1ccc(F)cc1)C(=O)CC2c1cccnc1 (stereo unspecified)	15%	-6%	-7%	-0.2%	0%	5%	-22%	9%
Cc1cccc(NC(=O)CN(C)CC(=O)NC(c2ccccc2)c2ccccc2)c1C	-6%	-16%	-17%	.	-5%	.	-4%	.
COc1ccccc1/C=C/C(=O)OCc1nc2ccccc2c(=O)[nH]1	-2%	5%	16%[46.1 µM]	.	-1%	?	-2%	.
COc1ccc(S(=O)(=O)N2CCC(C(N)=O)(N3CCCCC3)CC2)cc1OC	23%	-3%	2%[46.1 µM]	.	?	3%	3%	.
COc1ccc(NC(=S)N2CCC(N(C)CCN3CCOCC3)CC2)cc1	-5%	-5%	0%	-0.9%	5%	-3%	-16%	10%
Cn1c(=O)[nH]c(=O)c2c1nc(Br)n2CCCO	15%	-2%	2%	1.4%	?	-2%	0%	1%
C=C(C)c1cccc(C(C)(C)NC(=O)N2CCN(c3ccccc3OC)CC2)c1	4%	-28%	?	-3.7%	1%	-9%	-2%	?
Cc1sc2c(c1C)C(=O)NC(c1ccccc1F)N2 (stereo unspecified)	?	0%	?	.	23%[46.1 µM]	-9%	3%	.
CCc1ccc(C(=O)NNc2cc(Cl)cc(Cl)c2)cc1	24%	0%	?	.	?	-40%	-1%	.
CCc1ccc(CNC(=O)c2ccc3c(c2)nc2n3CCC(C)C2)cc1 (stereo unspecified)	.	38%[activator]	.	-3.9%	14%[46.1 µM]	.	.	-1%
O=C1NC(c2ccc(Cl)cc2)Nc2ccccc21 (stereo unspecified)	1%	12%	-19%[14.2 µM]	.	?	-7%	0%	.
CS(=O)(=O)N1CCC(C(=O)Nc2cccc([N+](=O)[O-])c2)CC1	7%	-10%	5%	.	-7%	3%	0%	.
Cc1cc(NC(=O)c2ccc3c(c2)OCCO3)no1	-1%	-67%	?	-3.9%	?	0%	-3%	7%
Next section
SMILES	RE007 growth inh	StopGo reporter	Marburg entry inh	Cruzain Triton	LASV entry inh	NS1 inh	SARS PLpro yeast	Cruzain noTriton
CCn1c(N2CCN(C(=O)NC3CCCCC3)CC2)nc2ccccc21	4%	-28%	-19%	-6.0%	12%	-11%	-9%	-4%
O=C(NCCN1CCc2ccccc2C1)Nc1ccc([N+](=O)[O-])cc1	-27%	-12%	.	.	.	-1%	2%	.
CCC(C)NC(=S)NNC(=O)c1ccncc1 (stereo unspecified)	-15%	3%	6%[46.1 µM]	.	?	.	3%	.
c1ccc(CNCC2COc3ccccc3O2)cc1 (stereo unspecified)	-1%	67%[activator]	?	-1.1%	2%	-2%	5%	-3%
CCOc1ccccc1NC(=O)N1CCN(C)c2ncccc21	.	?	-17%[46.1 µM]	-2.7%	-7%[46.1 µM]	.	.	-1%
c1ccc2c(CN3CCSCC3)cccc2c1	-8%	-10%	.	.	.	-6%	7%	.
COC(=O)N1C/C=C\C(c2ccc(OC)cc2)N(Cc2ccc(F)cc2)C(=O)C1 (stereo unspecified)	2%	-26%	.	.	.	4%	-3%	.
CCn1c(=O)c(C(=O)NCc2ccc(OC)cc2)c(O)c2ccccc21	13%	-14%	7%	0.2%	-2%	2%	6%	3%
Cc1ccc(CCNC(=O)C2CCCN(S(=O)(=O)c3ccc4c(c3)oc(=O)n4C)C2)cc1 (stereo unspecified)	.	-6%	3%[46.1 µM]	-0.2%	-14%[46.1 µM]	.	.	?
COc1ccc(NC(=O)CSc2c3c(nc4cc(Cl)ccc24)CCCC3)cc1OC	-1%	?	?	-11%	?	2%	-12%	-15%
FC(F)(F)c1ccc(N/N=C/c2cccnc2)nc1	11%	36%[activator]	14%[46.1 µM]	.	1%	-37%	-1%	.
CCOC(=O)c1sc(N)c(C#N)c1CSc1nnc(C2CCCCC2)n1N	-1%	-25%	-22%	-3.7%	-6%	4%	-8%	2%
COc1ccc(CC(=O)NC(C)c2nnc(SCCC(=O)Nc3ccccc3)n2C)cc1 (stereo unspecified)	-3%	2%	2%[46.1 µM]	.	10%[46.1 µM]	.	0%	.
CC(=O)Nc1c(O)nc(SCC(=O)Nc2cccc(C)c2)[nH]c1=O	14%	.	5%	-1.9%	19%	4%	0%	1%
Cc1ccc(C)c(NC(=O)CSc2nnc(CSc3nc(C)cc(C)n3)n2Cc2ccco2)c1	15%	1%	-4%&-4%	-2.4%	-2%	2%	4%	13%
O=C(NCC(c1ccco1)N1CCCCC1)c1ccc(COc2ccc(Cl)cc2)cc1 (stereo unspecified)	-15%	-23%	?	.	10µM*	.	.	.
Cc1cccc(NC(=O)NNC(=O)c2c(Cl)c(C)nn2C)c1	0%	-23%	19%	-0.7%	-1%	8%	9%	5%
